Assay outcomes from PubChem.
TRPML1 agonist – human mucolipin-1 channel agonism; Q9GZU1; hit rate 0.12% among 410,000; TRPML1-expressing cells, Ca2+ dye fluorescence, FDSS; host cell line not named in the record; reference of the full effect not given here; activation, % (no concentration beside the values); in the data active = activation above about 50%; inconclusive = about 30% to 50%; inactive = below about 30%; note: 0% is about no effect; the text of the record puts the active cut at 80%
Target sequence (Q9GZU1 whole entry, looked up): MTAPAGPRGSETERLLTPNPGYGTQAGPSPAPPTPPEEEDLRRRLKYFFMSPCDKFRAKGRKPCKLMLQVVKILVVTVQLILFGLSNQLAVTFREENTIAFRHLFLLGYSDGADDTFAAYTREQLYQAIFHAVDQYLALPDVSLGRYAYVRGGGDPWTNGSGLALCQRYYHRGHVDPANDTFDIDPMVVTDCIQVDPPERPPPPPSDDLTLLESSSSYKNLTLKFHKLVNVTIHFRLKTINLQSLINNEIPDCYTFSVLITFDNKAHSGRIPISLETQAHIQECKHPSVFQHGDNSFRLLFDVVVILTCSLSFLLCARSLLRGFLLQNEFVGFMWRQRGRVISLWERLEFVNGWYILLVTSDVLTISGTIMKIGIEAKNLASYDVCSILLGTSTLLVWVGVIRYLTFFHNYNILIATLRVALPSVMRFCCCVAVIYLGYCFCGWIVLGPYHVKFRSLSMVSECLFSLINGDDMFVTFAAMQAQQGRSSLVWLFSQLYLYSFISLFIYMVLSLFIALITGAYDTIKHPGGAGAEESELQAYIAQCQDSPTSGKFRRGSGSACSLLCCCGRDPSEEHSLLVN
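In this qHTS format, compounds were pin-transferred onto Ca8-dye-loaded TRPML1-DL cells induced with Tet overnight, and intracellular Ca2+ fluorescence was recorded kinetically for 110 s after a 10 s baseline. A subsequent 4uM final 54-4 (EC80) addition followed by a second 110 s read served as the antagonist phase.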
TRPV1 PAM – potentiators of human vanilloid receptor 1 (TRPV1); Q8NER1; TRPV1-expressing cells, Fluo-8 calcium influx, capsaicin EC20 potentiation; host cell line not named in the record; control for the full effect not named in the record; potentiation, % at 8.33 µM; hit rate 0.02% among 320,000; active means potentiation above 80%; inconclusive means 30% to 80%; inactive means below 30%; note: 0% is about no effect
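TRPV1-expressing cells were cultured overnight at 35.5C and loaded with Fluo-8 calcium dye for 40 to 90 min at room temperature. After a 10 s baseline, compound was added and calcium influx was read kinetically for 3 min (ex 480/em 520 nm).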
Menin MLL FP FL – displaces fluorescein MLL peptide from human menin. Fluorescence polarization, fluorescein-MLL peptide displacement from menin. FP activity change, % at 61.4 µM. 290,000 tested, under 10 active. AID 1766; inconclusive = falling polarisation curve, or a change in total fluorescence; inactive = total fluorescence flat and polarisation flat or rising; no compound was filed as active; the % refers to the polarisation; negative = inhibition;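 note: % of control where 0% means no effect; inhibitors lower the polarisation; unlabelled MLL peptide was the positive control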
TRPML1 blocker – blocks the human TRPML1 channel. Q9GZU1. TRPML1-inducible cells, Ca2+ dye fluorescence, FDSS; stronger effect = lower value; inhibition of EC80 agonist-evoked calcium signal. activity change, negative = inhibition, % (no concentration beside the values). hit rate 0.02% among 390,000. AID 624415; in the data active means activity change below about -50%; inconclusive means about -30% to -50%; inactive means above about -30%;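 note: stimulus is agonist 54-4 at its EC80 concentration; % is set by controls: 0 for no effect and ±100 for the full control effect; compound concentration not given in the record; the text of the record puts the active cut at -80%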
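Calcium fluorescence in TRPML1-DL cells induced overnight with Tet: a 110 s read after compound pin addition, then a 110 s antagonist read after challenge with 54-4 at 4 uM final (EC80).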
ClpP mod – qHTS Assay for Activators of ClpP | purified B. subtilis ClpP, FRET peptide cleavage, 20 min | Potency, µM (top dose mostly 57.5 µM), for the others: at the highest dose activity change, negative = active | hit rate 1.9% among 340,000; active = well fitted falling curve with a large enough effect; inconclusive = small, poorly fitted or top-dose-only effect; inactive = no such curve, though single readings can be large or run the other way; note: potency is the fitted concentration of half-maximal effect; the source files actives as falling curves though it sought activators and does not explain the sign; nearly all actives have a fitted effect of over 65% in size; many hits overshoot -100%
Target sequence (P80244 whole entry, looked up): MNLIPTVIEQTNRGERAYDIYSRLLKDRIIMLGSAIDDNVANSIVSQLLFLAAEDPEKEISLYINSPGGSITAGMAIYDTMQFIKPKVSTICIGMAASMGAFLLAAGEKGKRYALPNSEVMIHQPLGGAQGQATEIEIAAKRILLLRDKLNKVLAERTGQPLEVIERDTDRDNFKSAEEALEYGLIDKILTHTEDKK
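ClpP 10 microg/mL final, pH 8 Tris/KCl buffer with BSA, glycerol, Tween-20; compound pinned in; FRET-FV substrate; RT 20 min; Ex320/Em430; ΔFRET vs ADEP 5.8 microM, DMSO, no enzyme.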
PINK1 expr mod – changes PINK1 expression; PINK1 immunofluorescence, high-content cytometry, 24 h; Potency, µM (doses to about 76.6 µM), for the others: at the highest dose activation (PINK1 increase), actives largely listed as activators; AID 624263; hit rate 0.2% among 410,000; active = well fitted activation curve with a large enough effect; inconclusive = small, poorly fitted or top-dose-only effect; inactive = flat fitted curve, though single readings scatter; cell line not stated here;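 note: potency is the fitted concentration of half-maximal effect; % of control where 0% means no effect; nearly all actives have a fitted effect of over 65% in size; a mitochondrial uncoupler was the plate control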
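Readout is PINK1 immunofluorescence, quantified alongside mitochondrial, cell and nuclear markers by laser-scanning microplate cytometry. Cells from a stable line were exposed to compound titrations (5 concentrations) for 24 hours, with CCCP controls.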
Sfp PPTase inh – blocks B. subtilis Sfp PPTase activity; Q9F4F7; Biochemical Sfp PPTase activity, qHTS; Potency, µM, for inactives: max response, negative = inhibition, usual class: inhibitors; hit rate 3.5% among 310,000; active = well fitted inhibition curve with a large enough effect; inconclusive = small, poorly fitted or top-dose-only effect, or another doubt; inactive = no such curve, though single readings can be large or run the other way;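 note: the enzyme is Sfp with the accession as filed and its product quenches rhodamine fluorescence; potency is the fitted concentration of half-maximal effect; 0% = enzyme reaction without inhibitor and -100% = no enzyme wells; top concentration of the series not given in the record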
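Fluorescence-quenching assay with 15 nM Sfp, 5 uM rhodamine-CoA and 12.5 uM BHQ-2-labelled ybbR peptide in pH 7.6 Hepes/MgCl2 buffer. Enzyme was pre-incubated with compound for 15 min at room temperature. Rate was taken from the 30-min fluorescence change (525/598 nm).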
* = called active by the depositor; ? = inconclusive; . = not tested or not shown; & = joins results of further samples; [ ] = remark or other dose. Outcome played no part in choosing rows; about 4.4% have a hit in one of these screens.

SMILES	TRPML1 agonist	TRPV1 PAM	Menin MLL FP FL	TRPML1 blocker	ClpP mod	PINK1 expr mod	Sfp PPTase inh
Cc1cc(C)c(C#N)c(SCc2ccccc2C(=O)O)n1	1.6	3	0.8	-22	-3.6%	2.7%	8%
Cc1ccc(NC(=O)CNC(=O)N2CC(=O)Nc3ccccc32)cc1F	0.4	-8	-7.1	22	-5.9%	-0.6%	17%
Cc1ccc(C(=O)OCCN2CCN(c3ncc(C(F)(F)F)cc3Cl)CC2)cc1	0.9	-12	-0.2	-6	14µM*	2.1%	15%
CN(CC(=O)Nc1cccc2c1CCCC2)S(=O)(=O)c1ccc(Cl)cc1	2.8	-6	5.7	28	-1.9%	20%[38.3 µM]	14%
COC(=O)COc1ccc(S(=O)(=O)Nc2cc([N+](=O)[O-])ccc2C)cc1	-0.2	-6	0.6	3	.	-0.4%	14%
CCOC(=O)[C@@H]1C(c2c(OC)cc(OC)cc2OC)=NO[C@@H]1C(=O)OCC	-0.1	?	-2.2	3	0.8%	-3.3%	-13%
CC(C)N1C/C(=C/c2ccsc2)C(=O)/C(=C/c2ccsc2)C1	-0.6	4	6.1	-10	.	-3.3%	?
Cn1c(N/N=C/c2cccs2)nc2c1c(=O)n(Cc1ccccc1)c(=O)n2C	-0.5	2	9.7	-3	2.5%	5.1%	20%
O=C(Nc1ccc(OC(F)(F)F)cc1)Oc1ccccc1N1CCOCC1	0.7	-7	1.0	-17	0.1%	7.0%	6%
CN(C)c1cccc(C(=O)OCc2cc(=O)oc3cc(O)ccc23)c1	0.3	-1	-0.5	-2	1.1%	0.2%	-16%
Cc1ccc(-n2cc(C(=O)OCc3ccc(F)c(F)c3)c3ccccc3c2=O)cc1	0.7	.	.	-12	-5.8%	-0.5%	.
Cc1ccc(S(=O)(=O)n2nc(C)c(S(=O)(=O)N3CCCCCC3)c2C)cc1	1.0	.	.	25	-0.8%	0.1%	.
CCN(C(=O)C1CCN(S(=O)(=O)c2ccc3c(c2)oc(=O)n3C)CC1)c1cccc(C)c1	-0.6	7	0.3	-5	-0.5%	0.7%	-15%
O=C(CN1C(=O)COc2ccc(Cl)cc21)N1CCc2ccccc21	0.8	-5	0.8	9	-5.6%	0.7%[38.3 µM]	7%
O=C(Nc1ccccc1Cl)c1ccc(S(=O)(=O)NCC2CCCO2)cc1 (centres undefined)	-0.8	-7	-4.5	9	.	-1.1%	11%
Clc1ccc(SCCn2ccnc2)cc1	-0.3	9	-1.8	-11	-2.0%	-0.1%	-18%
Nc1nc(NC(=O)C(Cl)(Cl)Cl)nn1-c1ccccc1	0.4	4	2.5	-14	2.8%	1.5%	4%
CC1(C)CC2CC(C)(CN2S(=O)(=O)c2cccc(C(=O)OCC(N)=O)c2)C1 (centres undefined)	0.1	-10	.	-4	1.6%	0.2%	.
O=C(CSc1cn(CCNC(=O)c2c(F)cccc2F)c2ccccc12)Nc1ccc(F)cc1	1.7	.	.	-7	2.8%	6.4%	.
CC(=O)Nc1ccc(-c2csc(-c3cccnc3)n2)cc1	-0.2	7	0.5	10	.	2.9%	10%
O=C1CCc2cc(S(=O)(=O)N3CCC(C(=O)NCc4ccccn4)CC3)ccc2N1	.	-6	0.2	.	.	.	6%
COc1ccc(-c2nc(C)sc2CC(=O)O)cc1OC	1.7	-4	-1.5	3	.	-4.5%	-5%
COc1ccc(-c2cc(=O)oc3cc(OC(C)C(=O)Nc4ccc(CN5CCOCC5)cc4)ccc23)cc1 (centres undefined)	-0.7	-1	.	1	-24%	-0.1%	-5%
COc1cccc(NC(=O)COC(=O)CCS(=O)(=O)c2ccc(C)cc2)c1	-0.3	17	-1.7	6	0.3%	1.6%	5%
Cn1c(SCC(=O)NCc2ccc3c(c2)OCO3)nnc1-c1c[nH]c2ccccc12	-0.2	13	-0.3	-11	0.4%	-5.7%[38.3 µM]	1%
O=C(NCc1cccnc1)c1cn(CCc2ccccc2)nn1	-0.7	7	-0.8	33	-0.5%	0.1%	10%
CC1CN(CC(=O)Nc2ccc(Br)cn2)CC(C)O1 (centres undefined)	-0.3	14	-3.5	0	.	1.4%	26%
O=C(c1cc(Sc2ccc(Cl)cc2)nc2ccccc12)N1CCN(c2ccccn2)CC1	0.0	1	2.3	27	-4.8%	0.0%	-3%
O=C(NCc1ccccc1Cl)c1csc2c1CCCCC2	0.6	-1	3.7	1	-0.3%	2.5%	28%
CC1(C)CC(=O)C2=C(C1)OC1=C(C2)C(=O)CC(C)(C)C1	0.0	3	1.6	14	-3.1%	1.0%	2%
O=C(NCCOCCOCCNC(=O)c1ccccc1)c1ccccc1	1.4	-2	0.9	-10	.	1.1%	12%
Cc1ccccc1N(CC(=O)N1CCOCC1)S(C)(=O)=O	-0.3	-9	-6.6	-29	.	3.4%	13%
O=C(c1cccc(C(F)(F)F)c1)C1CCCN(C(=O)CCc2cnccn2)C1 (centres undefined)	0.4	-3	5.7	0	.	-0.1%	0%
Cc1c(C(=O)Nc2ccc(Cl)cc2)c2ccccn2c1C(=O)c1ccccc1	1.3	-7	3.5	13	-4.7%	5.8%	11%
O=C1Nc2ccccc2CCc2ccccc21	0.5	-4	.	5	0.3%	0.6%	.
CCn1cc(/C=N\NC(=O)c2c[nH]c3ccccc23)c(C)n1	0.0	13	0.0	3	-2.6%	5.8%	6%
O=C(Nc1ccc(Oc2ccc(Cl)cc2)c(Cl)c1)c1cc(I)cc(I)c1O	-0.3	-4	-0.3&-1.1	-11	0.7%	1.7%	-8%&-19%
O=C(NCc1cccs1)C1CCN(C(=O)N2CCOc3ccc(Cl)cc32)CC1	-0.7	.	.	-4	-0.2%	0.3%	.
NC(=O)COC(=O)C(Cc1ccccc1)NS(=O)(=O)c1ccccc1F (centres undefined)	0.5	-7	-0.9	32	-1.7%	0.0%	11%
Cc1cc(C)c2nc(N(Cc3cccnc3)C(=O)CCOc3ccccc3)sc2c1	1.2	.	.	22	0.0%	-1.6%	.
Cc1cc(S(=O)(=O)NCCc2ccccc2)c(C)s1	1.1	10	-1.7	-8	-0.9%	7.1%[38.3 µM]	2%
CCC(=O)N1CCC1(C)C(=O)Nc1ccc2scnc2c1 (centres undefined)	-0.5	.	.	.	-1.7%	1.7%	.
Cc1cc(=O)oc2c(CN(CC(C)C)CC(C)C)c(O)ccc12	1.1	4	1.5	1	3.9%	-2.4%	7%
CCCC(=O)NC(c1ccccc1OC)c1ccc2cccnc2c1O (centres undefined)	1.7	4	0.0	2	.	0.5%	-3%
CCn1c(=O)c2ccccc2n2c(SCC(=O)N3CCCc4ccccc43)nnc12	0.1	16	-1.7	-2	-0.3%	?	9%
CC(C)N(Cc1ccccc1)C(=O)c1ccc2c(c1)OCO2	1.6	0	.	-1	1.1%	-0.7%	13%
Cc1ccc(-c2csc(C(C#N)=C(O)CN3CCN(C(=O)c4ccco4)CC3)n2)cc1	0.6	.	.	1	.	-1.6%	.
CC(=O)Nc1ccc2c(c1)C(=O)c1cccc(C(=O)O)c1-2	0.0	.	.	6	-1.6%	-5.2%	.
CCOCCCNc1ncnc2c1[nH]c1ccccc12	-1.3	-22	0.4	4	16µM*	1.1%	1%
CCOC(=O)C1(Cc2cccc(OC)c2)CCN(C(C)CC(C)(C)O)CC1 (centres undefined)	0.0	-5	-0.3	-17	.	0.2%	35µM*
N/C(=N\c1nc2c(c(=O)[nH]1)CCC2)Nc1cccc(Cl)c1	1.9	13	1.2	15	6.1%	6.0%	4%
Cc1cccc(N2CC(c3nc4ccc(C)cc4[nH]3)CC2=O)c1 (centres undefined)	1.4	.	.	-9	-3.8%	1.9%	.
O=C(O)COCC(=O)N1CCN(C(c2ccccc2)c2ccccc2)CC1	-0.2	9	3.2	12	-3.0%	-1.1%	-1%
COc1ccc(NC(=O)CN(c2ccccc2F)S(=O)(=O)c2ccc(C)cc2)cc1	1.4	-11	-0.9	29	-0.6%	6.0%	20%
O=C1c2ccccc2C(O)(c2ccccc2)N1CCc1ccccc1 (centres undefined)	1.0	-9	4.8	34	1.6%	2.3%	7%
CCOC(=O)c1cc(-c2ccc(C)cc2)nc2nc(SC)[nH]c(=O)c12	1.1	3	3.5	14	14µM*	1.2%	-1%
CCN1CCN(C(=O)/C=C/c2ccc([N+](=O)[O-])cc2)CC1	-0.1	-13	-1.3	4	-1.8%	-2.0%	2%
CCC(=O)NCCNc1nc2cc(C)c(C)cc2cc1C#N	-1.2	-13	2.2	-1	13µM*	2.5%	13%
CCn1c(-c2cccnc2)n[nH]c1=S	0.3	0	-2.0	13	-2.4%	?	89µM*
CCC1CCC(c2nnc(-c3ccc([N+](=O)[O-])cc3)o2)CC1 (centres undefined)	1.9	0	0.6	52	?	4.4%	-2%
Going on with the list:
SMILES	TRPML1 agonist	TRPV1 PAM	Menin MLL FP FL	TRPML1 blocker	ClpP mod	PINK1 expr mod	Sfp PPTase inh
CN(C(=O)CSc1nnc(-c2ccccc2F)o1)c1ccccc1	1.1	-4	.	-10	-4.0%	-0.4%	.
CN(Cc1ccccc1)c1nc(N)c([N+](=O)[O-])c(NCc2ccccc2)n1	2.4	4	3.3	2	0.3%	?	?
COc1ccc(C)cc1N(C(=O)COc1cccc(F)c1)c1nc2ccccc2s1	0.4	9	-0.8	8	-4.9%	11%	0%
Cc1ccc(NS(=O)(=O)c2ccc3c(c2)NC(=O)C(C)C(=O)N3)c(Br)c1 (centres undefined)	-0.2	-20	2.0	5	1.1%	0.3%	15%
OCc1ccc(-c2nn(Cc3ccccc3)c3ccccc23)o1	0.4&-0.4	2	2.2	-1	4.6%&4.1%	1.3%&0.4%	4.5µM*
CC(C)N1CSC(=S)N(Cc2ccccc2)C1	-0.5	-2	2.2	-2	0.5%	4.1%	-6%

Some of these compounds in order of count of non-hydrogen atoms, smallest number first:
SMILES	TRPML1 agonist	TRPV1 PAM	Menin MLL FP FL	TRPML1 blocker	ClpP mod	PINK1 expr mod	Sfp PPTase inh
CC(C)N1CSC(=S)N(Cc2ccccc2)C1	-0.5	-2	2.2	-2	0.5%	4.1%	-6%
Cc1ccc(NS(=O)(=O)c2ccc3c(c2)NC(=O)C(C)C(=O)N3)c(Br)c1 (centres undefined)	-0.2	-20	2.0	5	1.1%	0.3%	15%
CN(Cc1ccccc1)c1nc(N)c([N+](=O)[O-])c(NCc2ccccc2)n1	2.4	4	3.3	2	0.3%	?	?
